IL2 activator: activators of IL-2. AID 652025. activation, % (series mostly up to about 46 µM). IL-2 activation reporter assay, cell-based qHTS; stimulated with anti-CD3/CD4/CD28 beads; in transgenic mouse T cells. actives 0.065% (n = 360,000); in the data active = activation above about 50%; inconclusive = mostly about 30% to 49%; note: 0% is about no effect
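Screening format: compound pinned onto unstimulated transgenic mouse T cells, 60 min incubation, then anti-CD3/anti-CD4/anti-CD28 bead stimulation for 18 hours at 37 degrees C, followed by EGFP and DsRed detection.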
EPAC1 antagonist: EPAC1 (human) antagonism; actives 0.14% (n = 360,000); AID 720709; O95398; Potency, µM (titrated, usually from 115 µM), for the others: at the top dose activity change, negative = inhibition, hits mostly inhibitors; EPAC1 GEF assay, Rap1b-BODIPY-GDP exchange fluorescence;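 note: potency is the fitted concentration of half-maximal effect; plate controls were vehicle for no effect and positive control for full effect; nearly all actives have a fitted effect of over 50% in size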
CCT modulator: modulators of cytosolic chaperonin (CCT/TRiC) activity; purified chaperonin ATPase assay, HTRF ADP detection, 30 min; activity change, % (test concentration not listed), hits read low; actives 0.3% (n = 360,000); in the data active = activity change below about -30%; note: % is set by controls: 0 for no effect and ±100 for the full control effect
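Enzyme 40 or 20 nM (batch-dependent) in Tris pH 7.4/KCl/MgCl2/DTT; cpd 76 uM single point; ATP 10 uM; 30 min 37 °C; Transcreener ADP HTRF detection, 30 min RT; ratio 665/615.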
PLK1 PBD block: blocks phosphopeptide binding to human PLK1 polo-box domain. P53350. Plk1 PBD binding of FITC phosphopeptide, fluorescence polarization. Potency, µM, inactives show max response, negative = inhibition, hits mostly inhibitors. actives 2.8% (n = 360,000); note: potency is the fitted concentration of half-maximal effect; series mostly up to about 57 µM; % is set by controls: 0 for no effect and ±100 for the full control effect; nearly all actives have a fitted effect of over 65% in size
WRN inhibitor: blocks human WRN helicase; actives 0.46% (n = 360,000); Potency, µM (doses to about 114 µM), without a hit: at the highest dose activity change, negative = inhibition, hits mostly inhibitors; WRN helicase unwinding, fluorescent forked duplex, kinetic; Q14191; note: potency is the fitted concentration of half-maximal effect; % is set by controls: 0 for no effect and ±100 for the full control effect; nearly all actives have a fitted effect of over 55% in size
Target sequence (Q14191 whole entry, looked up): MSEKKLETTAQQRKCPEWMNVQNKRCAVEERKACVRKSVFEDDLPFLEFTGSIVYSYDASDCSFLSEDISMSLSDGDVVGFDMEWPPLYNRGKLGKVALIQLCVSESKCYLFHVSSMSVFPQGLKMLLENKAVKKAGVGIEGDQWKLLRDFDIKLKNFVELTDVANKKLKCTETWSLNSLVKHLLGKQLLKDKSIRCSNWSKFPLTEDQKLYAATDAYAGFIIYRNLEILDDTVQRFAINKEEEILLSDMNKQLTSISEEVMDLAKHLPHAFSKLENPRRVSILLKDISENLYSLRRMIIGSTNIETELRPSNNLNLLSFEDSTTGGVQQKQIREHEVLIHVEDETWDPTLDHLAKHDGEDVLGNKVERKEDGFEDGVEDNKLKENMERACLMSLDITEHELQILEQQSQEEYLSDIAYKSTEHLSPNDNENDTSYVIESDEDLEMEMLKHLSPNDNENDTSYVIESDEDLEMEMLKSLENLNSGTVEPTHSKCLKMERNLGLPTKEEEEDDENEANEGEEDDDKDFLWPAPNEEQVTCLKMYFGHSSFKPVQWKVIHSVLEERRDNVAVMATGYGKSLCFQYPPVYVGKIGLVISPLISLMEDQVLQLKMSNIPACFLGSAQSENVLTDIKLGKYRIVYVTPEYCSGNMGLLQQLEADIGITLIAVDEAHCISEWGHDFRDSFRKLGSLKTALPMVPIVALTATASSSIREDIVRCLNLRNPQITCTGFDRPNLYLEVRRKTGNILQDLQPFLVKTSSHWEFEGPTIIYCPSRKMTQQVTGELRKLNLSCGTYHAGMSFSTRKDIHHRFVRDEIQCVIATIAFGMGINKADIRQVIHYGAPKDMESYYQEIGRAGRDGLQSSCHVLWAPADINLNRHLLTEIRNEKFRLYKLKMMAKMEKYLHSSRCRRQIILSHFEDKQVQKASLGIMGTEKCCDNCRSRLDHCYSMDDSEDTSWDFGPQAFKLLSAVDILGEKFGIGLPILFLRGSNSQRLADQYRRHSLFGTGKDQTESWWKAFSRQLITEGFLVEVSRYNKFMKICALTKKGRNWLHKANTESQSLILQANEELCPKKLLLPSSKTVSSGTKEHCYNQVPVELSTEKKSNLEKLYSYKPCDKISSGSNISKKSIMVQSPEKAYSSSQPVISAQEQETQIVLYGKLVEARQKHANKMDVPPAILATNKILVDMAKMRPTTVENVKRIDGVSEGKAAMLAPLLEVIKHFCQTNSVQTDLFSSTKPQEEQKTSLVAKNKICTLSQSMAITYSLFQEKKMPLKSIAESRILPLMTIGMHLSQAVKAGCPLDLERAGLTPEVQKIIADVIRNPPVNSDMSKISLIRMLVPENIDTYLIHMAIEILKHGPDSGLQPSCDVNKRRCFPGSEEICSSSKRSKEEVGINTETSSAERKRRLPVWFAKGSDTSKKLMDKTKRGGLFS
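Screening of the MLSMR collection measured strand separation of a quenched forked DNA duplex (100 nM) by 20 nM WRN with 2 mM ATP, all final. Compounds were preincubated with enzyme 15 min at room temperature.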
EPAC2 agonist: activates human EPAC2 exchange factor; Q8WZA2; EPAC2 activation, biochemical qHTS; response scale: 100% = 6.5 mM cAMP response; Potency, µM (doses to about 154 µM), for the others: at the top dose activation, hits mostly activators; actives 0.079% (n = 360,000); AID 720711; note: potency is the fitted concentration of half-maximal effect; nearly all actives have a fitted effect of over 50% in size
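EPAC2 (100 nM) mixed with Rap1B loaded with BODIPY-GDP (250 nM) plus 50 uM unlabeled GDP; compounds pinned in, 5 min RT, then read every 5 min for 30 min (ex 480, em 540 nm). Normalized to cAMP control.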
EPAC1 ag: EPAC1 (human) agonism; O95398; EPAC1 agonist qHTS, biochemical assay; response scale: 100% = response to 6.5 mM cAMP; Potency, µM (titrated, usually from 154 µM), for the others: top-dose activation, actives largely listed as activators; actives 0.073% (n = 360,000); note: potency is the fitted concentration of half-maximal effect; nearly all actives have a fitted effect of over 60% in size
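Nucleotide exchange by EPAC1 (100 nM) on Rap1B–BODIPY-GDP (250 nM) in the presence of 50 uM GDP is tracked fluorescently at 480/540 nm over 30 min. Signals are normalized to a 6.5 mM cAMP control.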
Numbers without * were called inactive; ? = inconclusive; . = no result given; [ ] = remark or other dose. Unless noted, calls come from the whole dose curve; as a rule, active = well fitted curve in the direction sought with a large enough effect; inconclusive = small, poorly fitted or top-dose-only effect, or another doubt; inactive = no such curve, though single readings can be large; an effect the other way counts as inactive or inconclusive. This is a subset; count on the stated rates, not on these rows.

Order of values: CCT modulator, WRN inhibitor, EPAC2 agonist, IL2 activator, PLK1 PBD block, EPAC1 antagonist, EPAC1 ag
#1 CC1CCCN(C(=O)c2cc(-c3ccco3)nc3ccccc23)C1 (stereo unspecified)
→ 2.2, -16%, 8%, 0.4, ?, -3%, -11%
#2 Cc1nn(Cc2ccccc2Cl)c2sc(C(=O)NCc3ccc4c(c3)OCO4)cc12
→ -13, 4%, 16%, 0.6, -1%, 1%, 8%
#3 O=C1Nc2ccccc2/C1=C/C(=O)c1cccs1
→ 0.2, -31%, -7%, -4.1, 17µM*, 8%, -4%
#4 O=S1(=O)CC2N=C(N(Cc3c(F)cccc3Cl)c3ccccc3F)SC2C1 (stereo unspecified)
→ -2.7, 5%, -4%, -0.5, -10%, -24%, 4%
#5 O=C(CN1CCC(NC(=O)c2cccc(F)c2)CC1)NCc1cccs1
→ 1.1, 0%, -3%, 0.6, -8%, -14%, -2%
#6 O=c1ccn(Cc2ccc(F)cc2)c2ccnc(C(F)(F)F)c12
→ -2.7, 4%, 11%, -0.5, -8%, -3%, -2%
#7 CCCCc1c(O)nc2sc3cc(OC)ccc3n2c1=O
→ -0.2, -10%, 2%, -0.7, -4%, -13%, 14%
#8 C=CCn1c(SCC(=O)Nc2ccccc2F)nnc1C(C)NC(=O)c1ccccc1F (stereo unspecified)
→ -1.6, 0%, 3%, 0.0, 1%, -5%, 5%
#9 COc1cc2c(cc1OC)CN(C(=O)CSc1ccccc1C)CC2
→ -1.6, -34%, 7%, 1.9, 27µM*, -18%, 5%
#10 O=C1NCCN(CC2CCN(CCc3ccc(Cl)c(Cl)c3)CC2)C1=O
→ 2.4, -2%, 5%, -0.1, -3%, -8%, 0%
#11 O=C(NCCNC(=O)c1ccc(Cl)cc1Cl)c1ccco1
→ -0.4, 0%, 7%, -0.6, -8%, -11%, 3%
#12 Cc1c(C(=O)O)sc2c1c(=O)n(Cc1ccccc1)c(=O)n2C
→ -18, 1%, 15%, -1.0, -11%, -1%, ?
#13 Nc1ncc(-c2ccccc2)c(-c2ccc(O)cc2O)n1
→ -1.4, 4%, 14%, -0.7, -13%, 15%, 9%
#14 CC1(OC(=O)CCc2ccccc2)C(=O)C=C2C=C3CCCN3C=C2C1=O (stereo unspecified)
→ 0.9, -7%[11.6 µM], 10%, 0.0, -26%, -19%, 3%
#15 CC1(C)C(=O)Nc2ccccc2N1C(=O)COC(=O)c1cccs1
→ 0.4, 1%[11.6 µM], -1%, 0.3, -7%, -17%, -4%
#16 CC(=O)Nc1cc(=O)c2cccnc2[nH]1
→ -1.2, ?, 6%, -0.1, ?, -7%, 8%
#17 C=CCNc1nc(-c2ccccc2)c(C(=O)OCC)cc1C#N
→ -1.4, 3%, -2%, -3.8, 24µM*, -21%, 14%
#18 O=C(Nc1ccccc1C(=O)O)c1cccc(C(=O)Nc2ccccc2C(=O)O)c1
→ -2.1, -10%, 1%, -2.5, -15%, 8%, 0%
#19 O=C(COC(=O)c1c2c(nc3ccccc13)CCCC2)Nc1ccc2c(c1)OCO2
→ 0.0, -10%, 0%[15.6 µM], 0.0, -2%, -11%, -5%
#20 O=C(CC1Sc2ccccc2NC1=O)OCc1cc(=O)oc2cc(O)ccc12 (stereo unspecified)
→ -1.6, ?, 5%, 1.6, -10%, ?, -4%

From compound 8 to 19, copied from above:
Order of values: CCT modulator, WRN inhibitor, EPAC2 agonist, IL2 activator, PLK1 PBD block, EPAC1 antagonist, EPAC1 ag
#8 C=CCn1c(SCC(=O)Nc2ccccc2F)nnc1C(C)NC(=O)c1ccccc1F (stereo unspecified)
→ -1.6, 0%, 3%, 0.0, 1%, -5%, 5%
#9 COc1cc2c(cc1OC)CN(C(=O)CSc1ccccc1C)CC2
→ -1.6, -34%, 7%, 1.9, 27µM*, -18%, 5%
#10 O=C1NCCN(CC2CCN(CCc3ccc(Cl)c(Cl)c3)CC2)C1=O
→ 2.4, -2%, 5%, -0.1, -3%, -8%, 0%
#11 O=C(NCCNC(=O)c1ccc(Cl)cc1Cl)c1ccco1
→ -0.4, 0%, 7%, -0.6, -8%, -11%, 3%
#12 Cc1c(C(=O)O)sc2c1c(=O)n(Cc1ccccc1)c(=O)n2C
→ -18, 1%, 15%, -1.0, -11%, -1%, ?
#13 Nc1ncc(-c2ccccc2)c(-c2ccc(O)cc2O)n1
→ -1.4, 4%, 14%, -0.7, -13%, 15%, 9%
#14 CC1(OC(=O)CCc2ccccc2)C(=O)C=C2C=C3CCCN3C=C2C1=O (stereo unspecified)
→ 0.9, -7%[11.6 µM], 10%, 0.0, -26%, -19%, 3%
#15 CC1(C)C(=O)Nc2ccccc2N1C(=O)COC(=O)c1cccs1
→ 0.4, 1%[11.6 µM], -1%, 0.3, -7%, -17%, -4%
#16 CC(=O)Nc1cc(=O)c2cccnc2[nH]1
→ -1.2, ?, 6%, -0.1, ?, -7%, 8%
#17 C=CCNc1nc(-c2ccccc2)c(C(=O)OCC)cc1C#N
→ -1.4, 3%, -2%, -3.8, 24µM*, -21%, 14%
#18 O=C(Nc1ccccc1C(=O)O)c1cccc(C(=O)Nc2ccccc2C(=O)O)c1
→ -2.1, -10%, 1%, -2.5, -15%, 8%, 0%
#19 O=C(COC(=O)c1c2c(nc3ccccc13)CCCC2)Nc1ccc2c(c1)OCO2
→ 0.0, -10%, 0%[15.6 µM], 0.0, -2%, -11%, -5%

(further entries)
Order of values: CCT modulator, WRN inhibitor, EPAC2 agonist, IL2 activator, PLK1 PBD block, EPAC1 antagonist, EPAC1 ag
#21 Cc1cc2c(cc1C)-n1nnnc1C(N1CCCNCC1)C(=O)N2 (stereo unspecified)
→ ., -1%, 5%, 0.8, -17%, 15%, 10%
#22 CC(C)(C)S(=O)(=O)N1C[C@@H]2CC/C=C\C/C=C\2[C@H]1CCO
→ -1.0, -3%, 4%, 0.3, -9%, 3%, -11%
#23 CC(NC(=O)COc1ccc(-c2nnco2)cc1)c1ccc(Cl)cc1Cl (stereo unspecified)
→ 0.2, -18%, 3%, 0.0, -3%, -8%, -3%
#24 CCN1CCc2c(sc(NC(=O)c3ccc(S(=O)(=O)N(C)CC4CCCO4)cc3)c2C(N)=O)C1 (stereo unspecified)
→ -1.2, -19%, 15%, 1.4, -9%, -14%, 5%
#25 O=C(CCc1nc2sc3c(c2c(=O)[nH]1)CCCC3)NCCc1ccccc1
→ -1.1, -9%[11.6 µM], 0%, -0.5, -9%, 5%, 7%
#26 COc1ccc(Nc2nc(-c3ccccc3)c(C(=O)Nc3cccnc3)s2)cc1
→ -2.8, -3%, 9%, -0.2, 6%, -3%, -4%
#27 COC(=O)CCC(=O)OC1(C)C(=O)C=C2C=C(C3CC3)N(c3ccccc3)C=C2C1=O (stereo unspecified)
→ -1.3, -8%, 11%, 2.5, ?, -7%, -16%
#28 Fc1cccc(Cl)c1COc1ccc(-c2nnco2)cc1
→ 0.4, -4%[11.6 µM], 9%, -0.6, -12%, ?, 1%
#29 O=C(NCCCN1CCOCC1)c1cc2c(=O)[nH]c3ccccc3c2s1
→ 0.1, 5%, 11%, 0.0, -12%, -1%, 9%
#30 CCc1ccccc1NC(=O)CNC(=O)CCc1nc2sc3c(c2c(=O)[nH]1)CCCC3
→ -2.0, ?, -9%, -0.6, -20%, -7%, -2%
#31 CCC/C(O)=C1\C(=O)CC(C)(C)CC1=Nc1cccc([N+](=O)[O-])c1
→ 1.1, -4%, 4%, 0.6, -6%, 6%, 2%
#32 Cc1nnc(NC(=O)CSc2nnc(CCNC(=O)c3ccccc3F)n2C)s1
→ -0.9, 4%, 6%, 0.7, -8%, 8%, -2%
#33 CCn1c(SCC(=O)Nc2sc3c(c2C(N)=O)CCC(C)C3)nnc1-c1ccco1 (stereo unspecified)
→ -2.5, ?, 4%, -0.2, ?, ?, -8%

Screening data from PubChem BioAssay.
